High-throughput results (PubChem BioAssay)
N370S GC mod: qHTS Assay for Inhibitors and Activators of N370S glucocerebrosidase as a Potential Chaperone Treatment of Gaucher Disease; Lysosomal acid glucosylceramidase (Homo sapiens), P04062; N370S GC spleen homogenate, 4MU-glucoside fluorescence; actives 0.092% (n = 330,000); Potency, µM (doses to about 59.4 µM), inactives show at the top dose activity change, negative = inhibition, most hits filed as inhibitors;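 note: 0% = full enzyme activity and -100% = no enzyme basal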
DT40 TDP1 CPT: qHTS for Inhibitors of human tyrosyl-DNA phosphodiesterase 1 (TDP1): qHTS in cells in presence of CPT | Potency, µM (titrated, usually from 46.2 µM), for the others: top-dose activity change, negative = growth inhibition, most hits filed as inhibitors | chicken DT40 Tdp1-/-;hTDP1 cells + 20 nM CPT, ATP luminescence, 48 h | actives 12% (n = 420,000) | AID 686979, 2013; note: nearly all actives have a fitted effect of over 55% in size
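Chicken DT40 Tdp1-/- cells complemented with human TDP1, 400 cells/well, exposed to compounds plus 20 nM camptothecin for at least 48 h at 37 C; viability read as ATP content by CellTiter-Glo luminescence.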
An asterisk follows results filed as active; ? = inconclusive; . = no result given; & = joins results of further samples; [ ] = remark or other dose. Calls come from the whole dose curve; as a rule, active = well fitted curve in the direction sought with a large enough effect; inconclusive = small, poorly fitted or top-dose-only effect, or another doubt; inactive = no such curve, though single readings can be large; an effect the other way counts as inactive or inconclusive. Unless noted, % is set by controls: 0 for no effect and ±100 for the full control effect; potency is the fitted concentration of half-maximal effect. An excerpt; most or all hits stand in other tables.

compound,N370S GC mod,DT40 TDP1 CPT
O=C(O)c1ccc2c(c1)C(=O)N(C(Cc1ccccc1)C(=O)O)C2=O (stereo not given),10%,-13%
Cc1nc(C)c(C(=O)C2=C(O)C(=O)N(CCN(C)C)C2c2ccco2)s1 (stereo not given),-5%,7%
CCCCN1Cc2cc(C(=O)c3cc(OC)ccc3O)cnc2NC1=O,3%,-16%
O=C(COc1ccc2ccc(=O)oc2c1)NC1CCS(=O)(=O)C1 (stereo not given),.,-5%
CC(C)Nc1ncnc2c1cnn2-c1ccc(Cl)cc1,21%,?
Cc1ccc(NC(=O)CCS(=O)(=O)c2cccc3nonc23)c(Cl)c1,-3%,2%
Fc1ccccc1CSc1nc2ncccc2[nH]1,4%,-29%
Cc1cc2c(=O)n(C)c(SCC(=O)Nc3ccccc3C)nc2s1,4%,?
CCN(CC)S(=O)(=O)c1ccc(C(=O)NCc2n[nH]c(=S)n2-c2ccccc2OC)cc1,1%,-21%
COC(=O)c1cc2cc(Cl)ccc2nc1SC,1%,10%
Cc1cc(C)c(O)c(-c2cc(C(=O)Nc3ccc(S(=O)(=O)N4CCOCC4)cc3)[nH]n2)c1,-8%,16µM*
COc1ccccc1N1CCN(C(=O)c2sc3ncn(CC(=O)N4CCC(C)CC4)c(=O)c3c2C)CC1,-3%,?
Cc1ccc(S(=O)(=O)NNC(=S)Nc2cccc(F)c2)cc1,-4%,15%
CCCNC(=S)N1CCC(NC(=O)c2ccc(OC)cc2)CC1,0%,-6%
COC(=O)C1CSc2[nH]c(=O)sc2C1c1ccc(O)c(OC)c1 (stereo not given),12%,15%
CCOc1ccc(/C=N/NC(=O)Cc2csc(Nc3cccc(C(F)(F)F)c3)n2)cc1,-3%,?
COc1ccc(CNC(=O)C23CC4CC(CC(Br)(C4)C2)C3)cc1,2%,-5%
COCCNC(=O)CSc1nnc(CCCN2C(=O)c3cccc4cccc(c34)C2=O)n1-c1ccccc1,-5%,-22%
CC(C)(C)c1ccc(-c2nc(N)nc(N)n2)cc1,7%,0%
COc1ccc(-c2cc(C(=O)Nc3ccc(C)cc3)no2)cc1,4%,?
CCCN(CC(=O)Nc1ccccc1OC)C(=O)CN1C(=O)NC2(CCCCC2)C1=O,.,17%
COc1ccc(C)cc1-n1[nH]nnc1=S,1%,-2%
COc1ccc(OC)c(S(=O)(=O)Nc2ccc(OCC(=O)O)cc2)c1,-2%,9%
COc1cccc(S(=O)(=O)NCc2ccc3c(c2)OCO3)c1,-1%,-22%
COc1cccc(CNC(=O)CCC2CCCN(C(=O)c3cc4ccccc4o3)C2)c1 (stereo not given),10%,?

Part of the list above, field by field.
O=C(COc1ccc2ccc(=O)oc2c1)NC1CCS(=O)(=O)C1 (stereo not given)
  N370S GC mod: .; DT40 TDP1 CPT: -5%
CC(C)Nc1ncnc2c1cnn2-c1ccc(Cl)cc1
  N370S GC mod: 21%; DT40 TDP1 CPT: ?
Cc1ccc(NC(=O)CCS(=O)(=O)c2cccc3nonc23)c(Cl)c1
  N370S GC mod: -3%; DT40 TDP1 CPT: 2%
Fc1ccccc1CSc1nc2ncccc2[nH]1
  N370S GC mod: 4%; DT40 TDP1 CPT: -29%

Continuation.
compound,N370S GC mod,DT40 TDP1 CPT
O=C(CCCN1C(=O)CCC1=O)Nc1ccc2c(c1)OCO2,9%,3%
CN(Cc1cccnc1)Cc1cn(C)nc1-c1ccc(Oc2ccccc2)cc1,-7%,?
CCCCn1c(N)c(N(CC(C)C)C(=O)c2ccc(COc3ccccc3)o2)c(=O)[nH]c1=O,-2%,-29%
COc1ccc(C(=O)NCc2ccccc2OC)c(OC)c1,8%[2.35 µM],?
COC(=O)CSC1=C(C#N)C(c2ccccc2)CC(=O)N1 (stereo not given),15%,?
CCn1c(SCC(=O)NCC2CCCO2)nc2c(c1=O)SC(C)C2 (stereo not given),0%,3%
CCN(CC)S(=O)(=O)c1ccc2[nH]c(=O)c3ccccc3c2c1,-4%,?
COc1ccc(-c2c(C)nn(-c3ccccc3)c2N)cc1,-11%,-28%
CCC(=O)Nc1ccc(OCC2CCCO2)cc1 (stereo not given),7%,23%
Cn1c(=O)c(C(=O)NNC(=O)c2ccccc2Br)c(O)c2ccccc21,-5%,?
O=C(Nc1nc2ccc(S(=O)(=O)N3CCCCC3)cc2s1)c1cccnc1,-1%,-13%
Cc1cccc(NC(=O)Cc2cccs2)n1,5%,-38%
CCOc1ccc(NC(=O)Cn2cc(C(=O)CC)c3ccccc32)cc1,-13%,13µM*
COc1ccccc1Nc1ncc(C(=O)Nc2ccc(OC)c(OC)c2)c2ccccc12,-5%,18µM*
Fc1ccc(C2=CC(c3ccc(Br)o3)n3ncnc3N2)cc1 (stereo not given),25%,?
COc1ccccc1CCC(=O)OCC(=O)Nc1ccc(S(N)(=O)=O)cc1,4%,0%
Cc1cccc(Oc2ncnc3onc(C)c23)c1,4%,2%
COC(=O)c1c(NC(=O)COC(=O)CCNS(=O)(=O)c2ccccc2)sc(C)c1C,0%,14%
OC(COc1ccc2cc(Br)ccc2c1)Cn1ccnc1 (stereo not given),-19%,?
O=C(CS(=O)(=O)Cc1ccccc1)NCc1ccccc1Cl,5%,-4%
COc1ccc(C2CC(c3ccccc3)=NN2c2ccccc2)c(C(=O)O)c1OC (stereo not given),1%,7%
CCC(C)[C@H](NC(=O)OC(C)(C)C)C(=O)N/N=C/c1cccc2nccnc12 (stereo not given in full),3%,?
CCCc1cc(=O)[nH]c(SCC(=O)Nc2ncc(S(=O)(=O)c3ccc([N+](=O)[O-])cc3)s2)n1,-15%,?
Cc1nc(N)c(C#N)c(-c2cccnc2)c1C,1%,?
Cc1cccc(NC(=O)C2CCN(S(=O)(=O)c3c(C)[nH]c(=O)[nH]c3=O)CC2)c1,1%,-2%
Cc1ccc(C(C)C)c(OCCNS(C)(=O)=O)c1,5%,5%
COc1ccc(-c2cnc(NCc3cc4c(cc3[N+](=O)[O-])OCO4)n2C)cc1,1%,26µM*
S=c1[nH]nc(-c2ccccc2)n1-c1ccccc1,.,-2%
Cc1ccc(NC(=O)C2CCCN2S(=O)(=O)c2ccc(F)cc2)c(C)c1 (stereo not given),2%,-14%
NNC(=O)c1[nH]c2ccc(Br)cc2c1-c1ccccc1,-8%,?
CN1CCN(S(=O)(=O)c2ccc(Br)s2)CC1,10%,-14%
CCCN1C/C(=C/c2cccc([N+](=O)[O-])c2)C(=O)/C(=C/c2cccc([N+](=O)[O-])c2)C1,10%,1µM*
COC(C(=O)N1CCC(CCC(=O)Nc2ccccc2)CC1)c1ccccc1 (stereo not given),-1%,21µM*
CC(=O)Nc1nc2cc3c(cc2s1)OCO3,-8%,23µM*
CCc1ccc(NC(=O)C2CCCCC2C(=O)O)cc1 (stereo not given),-2%,2%
CCOC(=O)c1c(-c2ccc(OC)cc2)csc1NC(=O)C1CCCO1 (stereo not given),-8%,?
COc1ccc(Nc2ncccc2C(=O)O)cc1,?,-25%
CC(C)(C)C(=O)Nc1sc2c(c1C#N)CCC2,-10%,0%
CCOC(=O)c1c(N)nn(C(=O)c2ccccc2F)c1-c1ccc(OC)cc1,13%,1%
C=C(C)C1Cc2c(C)nn(-c3nc(C)cc(C)n3)c2C1 (stereo not given),10%,2.3µM*
CCCCC/S(CC1CC1(Cl)Cl)=N\S(=O)(=O)c1ccc(C)cc1 (stereo not given),3%,-3%
O=C(NCc1nnnn1-c1ccc(F)c(F)c1)c1ccc(S(=O)(=O)N2CCOCC2)cc1,-8%,-9%
Cc1c(C)c2ccc(OCC(=O)N3CCN(c4ccc(F)cc4)CC3)c(C)c2oc1=O,-9%,?
O=C(CCC(=O)c1ccccc1)Nc1cccnc1,11%,1%
CC(C)C(c1nnnn1Cc1ccc2c(c1)OCO2)N1CCN(C)CC1 (stereo not given),-14%,-1%
CCOC(=O)/C(=N/O)C1=NC(C)(C)Cc2cc(C)c(C)cc21,-2%,12%
COc1ccccc1C/C(N)=N/OC(=O)/C=C/c1ccccc1,-2%,?
CN(C)CCCN=Cc1c(-c2ccccc2)[nH]n(-c2nc3ccccc3s2)c1=O,-1%,?
Cc1ccc(N2CC(C(=O)Nc3c4c(nn3C(C)(C)C)CS(=O)(=O)C4)CC2=O)cc1C (stereo not given),-19%,-19%
COc1ccc(C(=O)O)cc1NC(=S)NC(=O)CSc1ccc(Cl)cc1,0%,5%

Copied from above for reference:
compound,N370S GC mod,DT40 TDP1 CPT
Cc1c(C)c2ccc(OCC(=O)N3CCN(c4ccc(F)cc4)CC3)c(C)c2oc1=O,-9%,?
O=C(CCC(=O)c1ccccc1)Nc1cccnc1,11%,1%
CC(C)C(c1nnnn1Cc1ccc2c(c1)OCO2)N1CCN(C)CC1 (stereo not given),-14%,-1%
CCOC(=O)/C(=N/O)C1=NC(C)(C)Cc2cc(C)c(C)cc21,-2%,12%

New compounds follow
compound,N370S GC mod,DT40 TDP1 CPT
O=C(CN1CCC(O)(c2ccccc2)CC1)Nc1ccc2c(c1)OCCO2,-10%,0%
CCOc1nc(NC(=O)NS(=O)(=O)Oc2ccccc2Cl)nc(-c2ccccc2)n1,.,-17%
COc1ccc(S(=O)(=O)n2cccc2)c(OC)c1,6%,10%
CN1C(=O)c2ccc(NC(=O)c3ccc(N4CCCCC4)c([N+](=O)[O-])c3)cc2C1=O,7%,23µM*
COc1ccc2[nH]c(N=Nc3ccccc3C)c(O)c2c1,2%,?
CCc1ccc(CN2CCC(CO)(CC3CCCCO3)CC2)o1 (stereo not given),-24%,4%
Cc1ccc([N+](=O)[O-])cc1NC(=S)NC(=O)c1c(Cl)cnn1C,3%,-3%
CCOc1ccc(/C=N/N2C(C)CCCC2C)cc1OC (stereo not given),-8%,-14%
O=C(CNC(=O)/C(=C\c1ccc(F)cc1)NC(=O)c1ccccc1)OCc1ccccc1,21%,?
CN(C(=O)CSc1nnc(C(F)(F)F)n1N)C1CCS(=O)(=O)C1 (stereo not given),-3%,-1%
Cn1c(-c2cccs2)[n+](C)c2ccccc21,6%,?
CC(=O)N1N=C(c2ccccc2)CC1c1ccccc1[N+](=O)[O-] (stereo not given),-2%,-15%
O=C(Nc1nc(-c2ccccc2)cs1)c1ccc(Br)o1,4%,?
CCCn1c(C)c(C(=O)OCC)c(O)c(-c2ccccc2)c1=O,.,2%
COc1ccc(C(=O)Nc2ccccc2C(=O)O)cc1Cl,2%,1%
O=S1(=O)c2cccc3cccc(c23)N1Cc1ccc(-c2nnco2)cc1,-6%,-22%
C=CCN(CC=C)C(=O)c1cccc(OC2CCN(CC(C)(C)C)CC2)c1,-7%,?
CC(C)CC(=O)/C(=C/c1ccc(N(C)C)cc1)n1cncn1,5%,-7%
Fc1ccccc1CSc1nncn1NCc1cccs1,-10%,?
Cc1n[nH]c(=O)c2c(NC(=O)COC(=O)Cc3c(F)cccc3Cl)oc(C)c12,-15%,0%
CCN1CCN(Cc2c(O)ccc3c(=O)c(-c4ccc(OC)c(OC)c4)c(C(F)(F)F)oc23)CC1,0%,-18%
O=[N+]([O-])/C=C/c1cc2ccccc2[nH]1,0%,21µM*
COc1cc(CNCCCN2CCOCC2)ccc1OCC(=O)NC(C)(C)C,-5%,13%
c1ccc2nc(C3=NCCN3)ccc2c1,6%&11%,-3%
Fc1ccc(COc2ccc(Br)cc2CNCC2CCCO2)cc1 (stereo not given),0%,?
CCOC(=O)c1ccc(NC(=S)N2CCN(CCN=CC3=C(O)CC(C)(C)CC3=O)CC2)cc1,7%,13%
CC(NC(=O)COC(=O)C1CSC2(C)CCC(=O)N12)C12CC3CC(CC(C3)C1)C2 (stereo not given),-2%,-5%
Cc1cc(NC(=O)CSc2nc(C(C)C)nc3c2c(=O)n(C)c(=O)n3C)no1,2%,16µM*
Cc1ccc(Nc2c([N+](=O)[O-])c(=O)oc3ccccc23)cc1C,5%,?
